D2 ag = activates the human D2 dopamine receptor; P14416; DiscoveRx PathHunter D2 beta-arrestin, luminescence, 90 min; 100% = 57 uM dopamine signal; activation, % (no concentration beside the values); AID 624465; actives 0.084% (n = 360,000); in the data active = activation above about 40%; inconclusive = about 15% to 40%; inactive = below about 15%; further: compound concentration not given in the record; the text of the record calls up to 30% inactive
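Agonist mode: compounds alone added to overnight-plated D2 PathHunter cells for 90 min at 37 C, with 57 uM final dopamine (EC100) defining full response. Beta-arrestin recruitment detected by chemiluminescent reagent, read after 1 h at ambient temperature.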
CtBP-E1A blk = blocks the CtBP interaction with E1A; AlphaScreen GST-E1A/His-CtBP binding, 1536-well; stronger effect = lower value; control for the full effect not named in the record; activity change, % (test concentration not listed); actives 0.49% (n = 340,000); AID 651724; in the data active means activity change below about -65%; inconclusive means about -30% to -65%; inactive means above about -30%; further: on the % scale 0 is the no-effect control and ±100 the full control effect; compound concentration not given in the record
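In 5 uL wells, 23 nL compound meets equimolar GST-E1A and His-CtBP (5X stock 125 nM each) for 2 h, 37 °C. Beads (5X, 50 ug/mL) then 1 h, 37 °C, dark.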
Six1-Eya2 inh = blocks human Six1 binding to Eya2; actives 0.56% (n = 360,000); AID 651725; Q15475+O00167; AlphaScreen GST-Six1/His-Eya2 binding, biochemical; stronger effect = lower value; control for the full effect not named in the record; activity change, % (test concentration not listed); in the data active = activity change below about -65%; inconclusive = about -30% to -65%; inactive = above about -30%; further: on the % scale 0 is the no-effect control and ±100 the full control effect; compound concentration not given in the record
Target sequence (O00167 whole entry, looked up): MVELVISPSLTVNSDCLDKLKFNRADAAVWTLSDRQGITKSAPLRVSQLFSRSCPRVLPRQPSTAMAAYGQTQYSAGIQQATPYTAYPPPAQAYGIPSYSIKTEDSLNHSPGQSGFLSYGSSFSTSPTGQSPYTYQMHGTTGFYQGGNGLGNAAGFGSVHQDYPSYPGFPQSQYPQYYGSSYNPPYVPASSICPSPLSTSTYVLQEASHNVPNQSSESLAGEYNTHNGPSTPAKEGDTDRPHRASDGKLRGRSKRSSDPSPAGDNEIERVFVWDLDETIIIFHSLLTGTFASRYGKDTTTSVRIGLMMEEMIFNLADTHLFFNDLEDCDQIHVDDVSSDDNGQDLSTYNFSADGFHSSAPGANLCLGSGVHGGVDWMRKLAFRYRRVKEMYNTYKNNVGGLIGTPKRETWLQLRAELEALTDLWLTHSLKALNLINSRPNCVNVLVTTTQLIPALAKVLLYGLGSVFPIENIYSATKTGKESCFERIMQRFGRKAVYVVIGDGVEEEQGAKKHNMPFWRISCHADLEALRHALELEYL
Target sequence (Q15475 whole entry, looked up): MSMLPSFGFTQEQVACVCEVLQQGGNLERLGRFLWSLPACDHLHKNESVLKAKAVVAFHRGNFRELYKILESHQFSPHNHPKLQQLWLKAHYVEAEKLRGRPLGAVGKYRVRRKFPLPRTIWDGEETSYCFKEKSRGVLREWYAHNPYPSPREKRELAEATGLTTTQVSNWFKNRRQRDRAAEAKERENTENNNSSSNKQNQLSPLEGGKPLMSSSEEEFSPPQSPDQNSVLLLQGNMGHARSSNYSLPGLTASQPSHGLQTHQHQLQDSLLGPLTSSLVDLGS
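AlphaScreen with GST-Six1 and His-Eya2 (5X mix: 250 nM and 500 nM), glutathione donor and nickel acceptor beads; buffer 50 mM Tris pH 8.0, 300 mM NaCl, 1 mM TCEP; 1 h at 37 C in the dark.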
gsp ag = agonists of gsp mutant (McCune-Albright syndrome) | gsp mutant cells, cAMP HTRF, 30 min; control for the full effect not named in the record | Potency, µM (series often up to 76.9 µM), inactives show at the top dose activation (cAMP increase), actives largely listed as activators | actives 0.13% (n = 340,000) | AID 624287; active = well fitted activation curve with a large enough effect; inconclusive = small, poorly fitted or top-dose-only effect, or another doubt; inactive = no such curve, though single readings can be large or run the other way; cell line not stated here;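 further: phosphodiesterase inhibitor Ro 20-1724 added with compounds to block cAMP breakdown; potency means the concentration at half of the fitted maximal effect; nearly all actives have a fitted effect of over 60% in size; about a fifth of the inactives were tested at one dose only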
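Cells stably selected in G418 were plated at 2000/well, grown 16-24 hr, then given compounds in DMSO with the PDE inhibitor […] (300 uM solution added) for 30 min at 37C; cAMP was read by HTRF.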
gsp antag = antagonists of gsp mutant (McCune-Albright syndrome) | gsp-mutant cells, cAMP HTRF, 30 min; control for the full effect not named in the record | Potency, µM (series often up to 76.9 µM), inactives show at the top dose activity change, negative = inhibition, usual class: inhibitors | actives 0.4% (n = 340,000) | AID 624288; active = falling curve of any shape with a large fitted effect; inconclusive = falling curve, mostly with a smaller effect; inactive = flat or rising curve; cell line not stated here;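 further: intracellular cAMP measured with PDE inhibitor Ro 20-1724 present during compound exposure; potency means the concentration at half of the fitted maximal effect; on the % scale 0 is the no-effect control and ±100 the full control effect; nearly all actives have a fitted effect of over 65% in size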
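HTRF cAMP measurement after 30 min RT detection following 30 min, 37C compound treatment alongside […] (added as 300 uM solution) in G418-selected cells seeded at 2000/well and grown 16–24 h.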
D2 potentiator = human D2 receptor positive allosteric modulation; potentiation, % (concentration not given with the values); AID 624464; actives 0.23% (n = 360,000); DiscoveRx D2 beta-arrestin cells, luminescence, 90 min; 100% = 57 uM dopamine signal; P14416; active = potentiation of 50% or more; inconclusive = 30% to 50%; inactive = 30% or less;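 further: compound concentration not given in the record; tested on top of an EC20 dose of dopamine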
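D2 cells co-treated with compound plus 50 nM dopamine (EC20) for 90 min at 37 deg C to detect potentiation. Beta-arrestin recruitment was read as enzyme-fragment luminescence after 1 h at ambient temperature. Full response was set by 57 uM dopamine.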
* marks the source's active call; other numbers are inactive results; ? = inconclusive; / = no result given; [ ] = another dose, or the depositor's remark.

SMILES	D2 ag	CtBP-E1A blk	Six1-Eya2 inh	gsp ag	gsp antag	D2 potentiator
C[C@H](CO)N1C[C@H](C)[C@@H](CN(C)S(=O)(=O)c2ccc3c(c2)OCCCO3)OCc2cnnn2CCCC1=O	-9.3	5	7	-12%	/	-4
COc1cccc2oc(-c3ccco3)cc(=O)c12	-1.2	-10	-12	-23%	-3%	-25
COc1ccccc1S(=O)(=O)Cc1ccc(C(=O)NCc2ccco2)o1	-4.2	-5	4	-32%[inhibitor]	4%	-8
Cc1ccc(-c2[nH]nc3c2C(c2cccnc2)C(C#N)=C(N)O3)cc1 (stereo not drawn)	3.1	-5	1	14%	12%	10
Cc1ccc(SCC(=O)OCC(=O)NCc2cccs2)cc1C	-6.3	2	12	21%[15.4 µM]	5%	-4
CC1Cc2ccccc2N1C(=O)COC(=O)CCc1nc2ccccc2c(=O)[nH]1 (stereo not drawn)	-2.7	-6	10	2%[15.4 µM]	-19%	-9
CC(=O)Nc1ccc(-n2nnnc2SCC(=O)NC2CCCC2)cc1	11	0	6	3%	5%	-3
COc1ccc(/C=N/N2CCN(Cc3ccccc3)CC2)cc1	-2.8	/	-8	19%	1%	0
CCOc1ccc(NS(=O)(=O)c2ccc(C(=O)N(C)CC(=O)Nc3cccc(OC)c3)cc2)cc1	-4.2	0	0	-29%	-18%	-2
CCCCC(C(=O)OCC(=O)c1ccc(OC)cc1)N1C(=O)c2ccccc2C1=O (stereo not drawn)	-2.7	8	6	-4%	-14%	10
N#CC1(NC(=O)COC(=O)Cc2n[nH]c(=O)c3ccccc23)CCCCC1	-3.5	-10	-5	10%[15.4 µM]	0%	8
CCOC(=O)/C(C#N)=C1/CCCCCN1C	-1.7	1	3	16%	1%	6
CC[C@@H](C(=O)[C@@H](C)[C@@H](O)[C@H](C)CCc1ccc(C)c(O)c1C(=O)O)[C@H]1O[C@](CC)([C@H]2CC[C@](O)(CC)[C@H](C)O2)C[C@@H]1C	?	4	3	/	-21%	?
CN1C(=O)c2ccc(C(=O)Nc3ccc4c(c3)OCO4)cc2C1=O	-1.3	3	0	-1%	-4%	-5
Cc1ccc(/C=C/c2ccc(=O)n(Cc3ccc(Cl)cc3Cl)n2)cc1	-1.9	-1	11	4%	14%	-1
O=C(CSc1ccccn1)Nc1nonc1[N+](=O)[O-]	63*	/	2	15%	-3%	-8
N#C/C(=C(/O)CN1CCN(c2ccccc2F)CC1)c1nc(-c2ccc(Cl)cc2)cs1	1.9	-11	-7	3%	1%	9
O=C(NN1C(=O)c2ccccc2NC1c1ccc([N+](=O)[O-])o1)c1ccccc1 (stereo not drawn)	?	-15	-6	-19%	5%	3
CC1CCCN(CC(=O)Nc2ccc(S(=O)(=O)NC3CCCCC3)cc2)C1 (stereo not drawn)	0.2	-11	-2	-1%	2%	-6
O=C(Nc1cc(Cl)cc(Cl)c1)N1CCCN(Cc2ccccc2)CC1	2.4	6	1	12%[15.4 µM]	-10%	-32
Cc1cccc(C)c1-n1c(=O)n(Cc2ccccc2)c(=O)c2[nH]cnc21	-3.4	7	-1	0%[15.4 µM]	-32%	5
CCOC(=O)[C@H]1[C@H]2COc3cc(OC)ccc3[C@@H]2N2C(=O)N(c3ccc(Br)cc3)C(=O)[C@@]12C	-0.4	-7	-8	/	-1%	-6
O=C(c1cc(Cl)nc2ccccc12)N(Cc1nnc(-c2ccccc2Cl)o1)C1CC1	2.5	4	-14	9%[15.4 µM]	-8%	-9
O=C(C1=C[C@H](c2ccccc2)C[C@H](OCCCCO)O1)N1CCN(Cc2ccccc2)CC1	1.9	4	3	/	-17%	-8
O=C(CSc1nccn1-c1cccc(Cl)c1)Nc1ccc2c(c1)OCCO2	-2.1	-9	-20	-43%[inhibitor]	-7%	2
O=c1c(Sc2ccccc2)c(C(F)(F)F)[nH]n1-c1ccccc1	-2.7	-2	-2	?	?	3
CCc1ccc2[nH]c(=O)c(CN(CCO)C(=O)NCc3ccccc3)cc2c1	0.2	0	0	2%	9%	-10
Cc1[nH]c2ccccc2c1C(=O)COc1ccccc1F	-1.1	13	-18	4%[15.4 µM]	-16%	-1
CCCSc1nc2c(c(=O)[nH]c(=O)n2C)n1CCc1ccccc1	0.5	17	14	?	5%	-5
S=C(NCCc1ccncc1)Nc1ccccc1	-3.6	6	6	-1%[15.4 µM]	3%	-7
NC(=O)CC1Nc2cccc3cccc(c23)NC1=O (stereo not drawn)	9.3	-7	-2	8%	?	20
CCOc1ccc(-n2c(SCC(N)=O)nc3c(c2=O)SCC3)cc1	-3.4	3	5	?	5%	-5
O=S(=O)(c1cccs1)n1cnc2ccccc21	-2.5	2	1	-44%[inhibitor]	2%	4
O=C(NCc1ccccc1)c1ccc(C2SCC(=O)N2Cc2ccccc2)cc1 (stereo not drawn)	0.7	0	-3	-28%	-11%	-5
O=C(NC1C2CC3CC(C2)CC1C3)c1ccc2c(c1)OCO2 (stereo not drawn)	-0.2	6	5	10%[15.4 µM]	-9%	-9
O=C(OCc1c(Cl)cccc1Cl)c1ccccn1	-2.3	0	-1	20%	0%	-16
COc1ccccc1N1CCN(C2CC(=O)N(c3ccccc3)C2=O)CC1 (stereo not drawn)	3.6	/	-5	2%	-3%	6
Cc1ccc(NC(=O)NNC(=O)COc2ccc(Cl)cc2)cc1	-4.0	/	11	29%	12%	-15
O=C(Cc1ccccc1[N+](=O)[O-])Nc1ccccc1C(=O)N1CCOCC1	-2.9	2	6	-3%[15.4 µM]	9%	0
Cc1cccc(CSC2=NCCN2C(=O)c2ccc(S(=O)(=O)N(C)C)cc2)c1	-1.4	/	0	9%	-17%	-9

The final five entries of the part before are carried over, then new ones follow:
SMILES	D2 ag	CtBP-E1A blk	Six1-Eya2 inh	gsp ag	gsp antag	D2 potentiator
O=C(OCc1c(Cl)cccc1Cl)c1ccccn1	-2.3	0	-1	20%	0%	-16
COc1ccccc1N1CCN(C2CC(=O)N(c3ccccc3)C2=O)CC1 (stereo not drawn)	3.6	/	-5	2%	-3%	6
Cc1ccc(NC(=O)NNC(=O)COc2ccc(Cl)cc2)cc1	-4.0	/	11	29%	12%	-15
O=C(Cc1ccccc1[N+](=O)[O-])Nc1ccccc1C(=O)N1CCOCC1	-2.9	2	6	-3%[15.4 µM]	9%	0
Cc1cccc(CSC2=NCCN2C(=O)c2ccc(S(=O)(=O)N(C)C)cc2)c1	-1.4	/	0	9%	-17%	-9
Cc1ccc(C(=O)c2c3ccc(C(F)(F)F)cc3[n+]([O-])n2CCCC(N)=O)cc1	0.0	-5	-2	13%	-16%	-6
CC1CN(S(=O)(=O)c2ccc(C(=O)O)cc2)CC(C)O1 (stereo not drawn)	-8.0	0	0	?	6%	-6
CCOC(=O)CSc1nc2sc3c(c2c(=O)[nH]1)CCCC3	1.4	-2	6	0%	-8%	-7
CCN(CC)S(=O)(=O)c1ccc2[nH]c(=O)cc(C(=O)Nc3ccccc3N3CCCC3)c2c1	6.2	-3	-14	-4%[15.4 µM]	-4%	0
CCOC(=O)c1cccc(NC(=O)CSc2nnc(-c3cccnc3)n2C)c1	-3.4	1	0	-20%	4%	-19
O=[N+]([O-])c1cccc(P(=O)(O)c2cccc([N+](=O)[O-])c2)c1	-2.4	-2	12	24%	3%	-4
CC(C)Sc1ccc([N+](=O)[O-])cc1C(=O)Nc1ccncc1	5.2	-1	1	4%[15.4 µM]	-3%	-4
CCc1c(C#N)c(SCCC(=O)Nc2cccc(OC)c2)nc2c1C(=O)CC(C)(C)C2	-0.1	1	-9	0%	-16%	-11
CSc1ncc(Cl)c(C(=O)Nc2nnc(SC/C=C/c3ccccc3)s2)n1	-1.9	-23	-11	?	35µM*	-12
Cc1cc(C)nc(Nc2ccc(C(=O)O)cc2)n1	-0.8	2	6	-35%[inhibitor]	0%	-12
CC(C)(C)c1ccc(-c2nnc3sc(-c4ccccn4)nn23)cc1	0.9	?	?	12%	?	-4
Cc1cc(Cl)c2oc(C(=O)N(C)Cc3ccon3)c(C)c2c1	2.6	6	5	5%	14%	-9
O=C(c1cccc(S(=O)(=O)N2CCOCC2)c1)N1CCCCCC1	-0.6	5	2	15%	8%	-2
Cc1nc2ccc(NC(=O)COc3ccccc3)cc2s1	1.1	5	3	-2%[15.4 µM]	4%	-5
O=C(c1ccc2c3c(cccc13)CC2)C1CCCN(C(=O)c2cc[n+]([O-])cc2)C1 (stereo not drawn)	-3.4	-2	-1	25%	-2%	-2
Cc1ccc(C(c2sc3ncnn3c2O)N2CC(C)CC(C)C2)cc1 (stereo not drawn)	-1.9	-5	-1	-29%	-12%	-4
CC(=O)C1=C(O)C(=O)N(c2cccc(Br)c2)C1c1ccc(Br)cc1 (stereo not drawn)	-1.0	5	-7	?	-20%	-2
COc1ccc(CCC(=O)Nc2cccc(Cl)c2)cc1	-2.0	-12	14	20%	-11%	-19
C/C(=N\N=C1/NC(=O)C(C)S1)c1ccc([N+](=O)[O-])cc1 (stereo not drawn)	-0.9	-6	0	-3%	-18%	-12
CCCCC(c1nc2ccccc2[nH]1)n1c(=O)c(-c2ccccc2)nc2cc(C)c(C)cc21 (stereo not drawn)	-6.8	-12	18	/	/	-7
CC(=O)c1cc(F)ccc1OCC(=O)N1CCCc2ccccc21	-1.4	2	9	13%	2%	-1
OC[C@@H]1CN(CCN2CCOCC2)C[C@H](n2cnc3c(NCc4ccco4)ncnc32)O1	3.3	7	1	/	/	9
Cc1ccc(C(=O)N2CCCCC2C(=O)O)o1 (stereo not drawn)	-1.5	-3	4	-4%[15.4 µM]	21%	-2
CCOC(=O)Cc1csc(SCC(=O)NC2CCCC(C)C2C)n1 (stereo not drawn)	-0.5	7	1	-25%	8%	0
Clc1ccccc1C1=Nn2c(nnc2-c2ccco2)SC1	-3.0	-3	-3	-8%[15.4 µM]	-15%	-11
O=C(OCC(=O)c1ccc(Cl)s1)c1cncc(Br)c1	-0.5	/	-5	29%	8%	13
CC(C)CC(NC(=O)c1cccs1)c1nnc(SCc2ccc(Cl)c(Cl)c2)n1C (stereo not drawn)	2.9	-10	-6	-3%	-1%	-10
CSc1ccc(C(=O)C2CCCN(S(=O)(=O)N(C)C)C2)cc1 (stereo not drawn)	-1.0	-1	5	1%[15.4 µM]	-3%	-6
Cc1ccc(NC(=O)C(c2ccccc2)N2CCN(C(=O)c3ccco3)CC2)cc1Cl (stereo not drawn)	-0.6	/	-12	-1%	-16%	-5
CC(=O)c1sc(-c2ccc(Cl)cc2)cc1N	1.0	/	11	-10%	-1%	-20
S=C(Nc1ccccc1)N1CCOCCOCCN(C(=S)Nc2ccccc2)CCOCCOCC1	-3.5	-18	-5	-9%[15.4 µM]	-3%	-11
CC1CCCC(NC(=O)CN2C(=O)NC(C)(c3cc(F)ccc3F)C2=O)C1C (stereo not drawn)	-1.7	2	5	15%	10%	-1

Compound activity as filed in PubChem BioAssay.

Rows are unselected; 1.4% or so of the library scored in one or more.
